Vaccinia Venus: qHTS for Stage-Specific Inhibitors of Vaccinia Orthopoxvirus: Venus Reporter Primary qHTS; Vaccinia virus Venus reporter expression, fluorescence; Potency, µM (titrated, usually from 36.5 µM), without a hit: at the highest dose activity change, negative = inhibition, most hits filed as inhibitors; 0.46% of 330,000 active; AID 720580, 2013; active means well fitted inhibition curve with a large enough effect; inconclusive means small, poorly fitted or top-dose-only effect; inactive means no such curve, though single readings can be large or run the other way; tested in A549 cells; also: nearly all actives have a fitted effect of over 30% in size; inactives centre near -10
Vaccinia mCherry: qHTS for Stage-Specific Inhibitors of Vaccinia Orthopoxvirus: mCherry Reporter Primary qHTS. Potency, µM (titrated, usually from 36.5 µM), inactives show at the top dose activity change, negative = inhibition, actives largely listed as inhibitors. 0.63% of 310,000 active. Vaccinia virus mCherry reporter infection, fluorescence; about a quarter of the inactives have no number; active = well fitted inhibition curve with a large enough effect; inconclusive = small, poorly fitted or top-dose-only effect; inactive = no such curve, though single readings can be large or run the other way; tested in A549 cells; also: nearly all actives have a fitted effect of over 35% in size; inactives centre near -10
An asterisk follows results filed as active; i = inactive; ? = inconclusive; . = no result given; & = joins results of further samples; [ ] = dose if it differs, or a comment. % is scaled to controls: 0 for no effect and ±100 for the full control effect; potency is read from the fitted curve at half-maximal effect. Compounds as they come (roughly 0.87% active in at least one column).

SMILES	Vaccinia Venus	Vaccinia mCherry
CC1([N+](=O)[O-])COP(=O)(Nc2cccc(Br)c2)OC1 (centres undefined)	-8%	-19%
C#CCn1c(C2CC(=O)N(c3ccc(OC)cc3)C2)nc2ccccc21 (centres undefined)	-16%	-9%
CC(=O)Nc1ccc(-c2csc(Nc3ccc(Cl)cn3)n2)cc1	?	-30%
CCCn1nnc(NC(=O)c2cccc(OCC)c2)n1	-3%	-14%
O=C1CC(N2CCC(c3nc4ccccc4s3)CC2)C(=O)N1 (centres undefined)	-20%	0%
COc1ccc(/C=N/n2c(-c3cc(C)[nH]n3)n[nH]c2=S)cc1	-19%	-25%
Cc1ccc(C(=O)NC(=S)NCC2CCCO2)cc1 (centres undefined)	-4%	.
Cc1ccc(S(=O)(=O)N2CCN(C(=O)/C=C/c3ccco3)CC2)cc1	-7%	i
COc1cccc(C2C=C(c3ccc(Br)s3)Nc3ncnn32)c1OC (centres undefined)	-5%	-5%
O=C(NC1CCCC1)c1cc(Cl)ccc1[N+](=O)[O-]	-11%	-13%
COc1ccc(Br)cc1CNc1ccc(O)cc1	0%	-8%
CCCCNC(=O)C1CCN(S(=O)(=O)c2c(C)noc2/C=C\c2ccc(OC)cc2)CC1	-22%	i
O=C(CCc1c[nH]c2ccccc12)Nc1ncccc1O	-11%	-7%
CSc1cccc(NC(=O)C2CCN(S(=O)(=O)c3ccc(F)cc3)CC2)c1	?	-5%
CCOC(=O)N1CCN(C(=O)Cn2ccc3ccccc3c2=O)CC1	-10%	i
Cn1c(=O)[nH]c(=O)c2c1nc(CN1CCN(c3cccc(Cl)c3)CC1)n2CCc1ccccc1	-29%	-25%
Cn1c(NC(=O)c2cc(Br)ccc2Cl)cc(=O)n(C)c1=O	-1%	-8%
O=C(CCCn1c(=O)c2ccccc2n(Cc2ccccc2)c1=O)NCc1ccco1	?	.
Cc1cc(C)n2nc(C(=O)Nc3nnc(C4CC4)s3)nc2n1	-9%	-2%[1.46 µM]
C[C@@H]1COC(=O)[C@H](Cc2ccc(F)cc2)CC/C=C/C[C@@H](CC(=O)N[C@@H](CO)Cc2ccccc2)C(=O)N1	-25%	?
COc1ccccc1CNC(=O)c1cccc(N2CCCS2(=O)=O)c1	-2%	-12%
Cc1cc(C)nc(SCC(=O)NN)n1	-7%	-5%
O=C(Nc1ccc(S(=O)(=O)Nc2ncccn2)cc1)c1ccccc1Cl	-6%	-8%
COC(=O)c1ccc2c(c1)C(NC(C)=O)CCc1cc(OC)c(OC)c(OC)c1-2 (centres undefined)	?	i
O=C(O)CCc1nn2c3ccccc3nc2n(CCN2CCCCC2)c1=O	?	-6%[1.46 µM]
COc1ccc(NC(=O)c2ccc(-n3c(C)ccc3C)cc2)c(OC)c1	-1%	i
Cc1nc(N2CCC(C(N)=O)CC2)c2c(-c3cccs3)csc2n1	-10%	-20%
Cc1cccc2c(C(=O)Nc3ccc(Br)cc3)cc(-c3ccccn3)nc12	-24%	-5%
CCOC(=O)c1cccc(-c2ccc(C=O)o2)c1	-4%	-14%
O=C(Cn1nnc2ccccc21)Nc1ccc(Cl)cn1	2%	i
O=C(C[C@H]1CC[C@H]2[C@@H](COC[C@@H](O)CN2S(=O)(=O)c2ccccc2)O1)N[C@@H]1CCN(Cc2ccccc2)C1	-11%	-12%
CCO[C@H]1OC(C(=O)NCc2ccccc2)=C[C@@H](C2CCCCC2)[C@@H]1CCCO	-17%	i
S=c1[nH]nc(CCc2ccccc2)n1Cc1ccccc1	-16%	-17%
COc1ccc(COC(=O)c2cccc(S(=O)(=O)N3CCN(C(C)=O)CC3)c2)cc1	-14%	i
CCOc1ccc(Oc2ccccc2NC(=O)C2=COCCO2)cc1	-15%	-27%
CCC(=O)OCC(=O)Nc1cc([N+](=O)[O-])ccc1OC	10%	2%
O=C(NC(=S)Nc1ccc(S(=O)(=O)N2CCCCC2)cc1)c1ccccc1	-27%	.
CCP(=O)(c1cccc([N+](=O)[O-])c1)c1cccc([N+](=O)[O-])c1	-13%	-18%
CC(C)c1ccc(NC(=S)NC2CCN(Cc3ccccc3)CC2)cc1	?	?
C/C(Nc1ccc(Cl)cc1)=C(/C#N)C(N)=O	4%	-14%
COc1ccc(N=C2O/C(=C/c3sc(=S)n(CC4CCCO4)c3O)N=C2C#N)cc1 (centres undefined)	3%	-15%
CCOc1ccc(-c2cn3c(n2)sc2cc(C(=O)NCCCN4CCCCC4)ccc23)cc1	-21%	-19%
O=C(NCCNCc1cccc(Cl)c1)c1ccco1	-7%	-4%
CC(C)(C)Nc1nc(Oc2ccc(=O)n(-c3ccccc3)n2)nc(N2CCOCC2)n1	-13%	.
NC(=O)C1CCN(CC(=O)NC2CCCc3ccccc32)CC1 (centres undefined)	-8%	-20%

Gathered by group, the compounds so far with fluorine.
SMILES	Vaccinia Venus	Vaccinia mCherry
CSc1cccc(NC(=O)C2CCN(S(=O)(=O)c3ccc(F)cc3)CC2)c1	?	-5%
C[C@@H]1COC(=O)[C@H](Cc2ccc(F)cc2)CC/C=C/C[C@@H](CC(=O)N[C@@H](CO)Cc2ccccc2)C(=O)N1	-25%	?

Quoted at random: seven compounds from above.
SMILES	Vaccinia Venus	Vaccinia mCherry
COc1ccc(Br)cc1CNc1ccc(O)cc1	0%	-8%
O=C(O)CCc1nn2c3ccccc3nc2n(CCN2CCCCC2)c1=O	?	-6%[1.46 µM]
COc1cccc(C2C=C(c3ccc(Br)s3)Nc3ncnn32)c1OC (centres undefined)	-5%	-5%
CSc1cccc(NC(=O)C2CCN(S(=O)(=O)c3ccc(F)cc3)CC2)c1	?	-5%
CCC(=O)OCC(=O)Nc1cc([N+](=O)[O-])ccc1OC	10%	2%
Cn1c(=O)[nH]c(=O)c2c1nc(CN1CCN(c3cccc(Cl)c3)CC1)n2CCc1ccccc1	-29%	-25%
CC(C)(C)Nc1nc(Oc2ccc(=O)n(-c3ccccc3)n2)nc(N2CCOCC2)n1	-13%	.

Quoted from the listing:
CCOc1ccc(Oc2ccccc2NC(=O)C2=COCCO2)cc1 | Vaccinia mCherry = -27%
CCCCNC(=O)C1CCN(S(=O)(=O)c2c(C)noc2/C=C\c2ccc(OC)cc2)CC1 | Vaccinia Venus = -22%

The list goes on:
SMILES	Vaccinia Venus	Vaccinia mCherry
CN(CC(=O)Nc1ccc(F)cc1)C(=O)COC(=O)c1ccc(-c2ccccc2)cc1	?	?
CCOc1ccccc1NC(=S)N(CCOC)C1CCN(C(C)=O)CC1	-8%	i
CCN(CC)C(=O)COC(=O)c1ccc(O)cc1	-4%	-12%
C[C@H]1COc2cccc(N3CCC[C@@H]3CO)c2S(=O)(=O)N1	0%	15%
O=C(NCCc1ccccn1)c1cncc(Br)c1	-19%	-14%
Cc1noc(C)c1C(=O)OCC(=O)Nc1cc(Cl)ccc1Oc1ccccc1	-13%	-5%
CCCCC[C@H](C)N1C[C@H](COCc2ccccc2)Oc2cc(N3CC[C@H](O)C3)ccc2S1(=O)=O	3%	i
CCOP(=S)(OCC)SCCSCC	-7%	i
CC(C)(C)OC(=O)Nc1ccc([C@H](NC(=O)OC(C)(C)C)C(=O)OC(C)(C)C)cc1	-12%	-15%
CC(C)=CCC[C@H](C)C[C@@H]1CC2=C(C(=O)OC(C)(C)O2)[C@@H](c2ccc(F)cc2)O1	1%	i
CC(C)N(Cc1ccccc1)C(=O)c1nc(-c2ccc(Cl)cc2)n2c1CCCCC2	-7%	-5%
Cc1ccc(-c2nnc(Nc3ccc(Br)cc3)c3ccccc23)cc1S(=O)(=O)N1CCN(C)CC1	-30%	?
CC1(C(=O)Nc2ccc3c(c2)OCO3)Cc2c(-c3ccc4c(c3)OCO4)ccnc2O1 (centres undefined)	-17%	i
C=CCn1c(SCC(=O)Nc2ccc3c(c2)OCO3)nnc1-c1ccccc1	-24%	.
CCCCC(O)(c1ccc(OC)cc1)C(CN1CCOCC1)c1ccccc1 (centres undefined)	-12%	i
O=C(Nc1nnc(SCc2c(Cl)cccc2Cl)s1)C1CC(=O)N(c2ccc3c(c2)OCCO3)C1 (centres undefined)	-3%	i
O=C1N/C(=N/O)S/C1=C\c1ccccc1-n1cccn1	2%	-17%
Cc1cccc(-c2n[nH]nc2C2=CC(=O)CC(C)(C)C2)c1	-11%	i
COC(=O)c1c(NC(=O)c2cc(=O)c3cc(C)cc(C)c3o2)sc2c1CCC2	0%	0%
CCN(CC)C(=O)Cn1cc(S(=O)(=O)CC(=O)N2CC(C)OC(C)C2)c2ccccc21 (centres undefined)	0%	-11%
N#Cc1nc(-c2ccco2)oc1NCCCn1ccnc1	-6%	-14%
Nc1ccccc1SC(CC(=O)c1ccccc1)c1ccc([N+](=O)[O-])cc1 (centres undefined)	-12%	?
COc1ccc([C@H]2CC(=O)c3c(O)cc(O)cc3O2)cc1O	4%	-2%
O=C(O)c1ccc(CNC(=O)c2ccc3c(c2)OCCO3)cc1	-16%	-3%
S=c1nn[nH]n1C12CC3CC(CC(C3)C1)C2	12%	14%
Cc1ccc(CCNS(=O)(=O)c2cc3c(cc2C)NC(=O)CO3)cc1	-20%	-13%
CCOC(=O)N1CCN(C(=O)CCN2C(=O)COc3ccccc32)CC1	-5%	-12%
O=C(/C=C/[C@H]1O[C@@H](n2cnc3c(NC(=O)c4ccccc4)ncnc32)[C@H](O)[C@@H]1O)NCc1cccs1	0%	i
Cc1ccc(NC(=O)CSc2nc(N)cc(=O)[nH]2)cc1S(=O)(=O)N1CCOCC1	-6%	-4%
CCOc1ccc(NC(=O)CCn2cccn2)cc1	-9%	-13%
CCOC(=O)C1(Cc2ccc(OC)cc2)CCN(C(=O)c2cccc3nccnc23)CC1	-13%	i
CCCSC1=NC2(CCN(C(=O)NC3CCCCC3)CC2)N=C1c1ccc(Cl)cc1	-10%	-8%
Cc1cccn2cc(COc3ccc(-c4ccccc4)cc3)nc12	-11%	?
COc1ccc(/C=C(/NC(=O)c2ccccc2)C(=O)NCc2ccco2)cc1	0%	i
COc1ccc(CC(=O)NC2CCCc3ccccc32)cc1 (centres undefined)	0%	-6%
COc1ccc(-n2nc3c(N)n[nH]c3cc2=O)cc1	-19%	-11%
COc1cc(NS(=O)(=O)c2ccc(NC(=O)CN3C(=O)c4ccccc4C3=O)cc2)nc(OC)n1	6%	5%
Cc1ccc2c(nc3s/c(=C\c4ccc(-c5ccccc5C(=O)O)o4)c(=O)n32)c1C	-9%	-4%
CCOc1ccc(NC(=O)[C@@H]2CCCN2C(=O)c2cccs2)cc1S(=O)(=O)N1CCCCC1	-11%	i
COc1ccc(CC(=O)OCC(=O)c2ccc(OC)cc2)cc1	-7%	i
COc1ccc(NC(=O)N(C)C[C@H]2Oc3ccc(NC(=O)Cn4cnnn4)cc3C(=O)N([C@H](C)CO)C[C@@H]2C)cc1	0%	i
Cc1cccc(C2c3[nH]c4ccccc4c3CCN2C(=O)c2nn(C)c(=O)c3ccccc23)n1 (centres undefined)	-6%	3%
Cc1csc(CN(C)C(=O)c2sc3ncnc(NCC4CCCO4)c3c2C)n1 (centres undefined)	-2%	i
Clc1cccc(Cl)c1C1N2CCCN12 (centres undefined)	1%	i
Cn1c(=O)c2cc(NC(=O)Cc3ccccc3F)ccc2n1-c1ccc(C(C)(C)C)cc1	-13%	i
NC(=S)N/N=C\c1ccc(-c2cccc(Cl)c2Cl)o1	6.3µM*	.
Cc1onc(-c2ccccc2)c1-c1ccc(S(N)(=O)=O)cc1	-15%&-14%	-5%&-10%
CCN(CC)CCCn1c2c(c(SCC(=O)Nc3cccc4ccccc34)nc1=O)CCC2	-28%	-6%
CN(Cc1ccccc1)C(=O)c1ccc(NC(=O)Cc2cccc(NC(=O)C3CCCN(C(=O)C4CCCC4)C3)c2)cc1 (centres undefined)	?	-8%
COc1cccc(/C=C2/Oc3ccccc3N(CC(=O)NCC3CCCO3)C2=O)c1 (centres undefined)	-15%	-12%
NC(=O)c1nc(C(=O)N2CCCCC2)c2ccccc2n1	2%	i
COc1ccc(/C=C(/NC(=O)c2ccc(C)cc2)C(=O)N2CCCC2)cc1OC	-12%	0%
Cc1ccc(C)c(NC(=O)COC(=O)CCCN=C2NS(=O)(=O)c3ccccc32)c1	-5%	-12%
OC[C@@H]1CN(C2CCCC2)C[C@H](n2cnc3c(NC4CC4)ncnc32)O1	-1%	-12%
O=C(c1cccc(Oc2c(Cl)cccc2[N+](=O)[O-])c1)N1CCCCC1	-14%	-24%
CCOC(=O)c1c(C)[nH]c(C)c1S(=O)(=O)NCC(=O)N1CCN(c2ccccc2F)CC1	-5%	-14%
O=C(NC(=S)Nc1ccc(S(=O)(=O)N2CCCCC2)cc1)c1ccc(Cl)cc1	-18%	.
COc1ccc(OCCN2C(=O)c3cccc(N)c3C2=O)cc1	7%	-6%
COCC(C)n1c(C)cc(C(=O)CN2C(=O)NC(Cc3c[nH]c4ccccc34)C2=O)c1C (centres undefined)	-23%	-5%
O=C1C=C(CCc2ccccc2)CCC1	-14%	-8%
(further entries)
SMILES	Vaccinia Venus	Vaccinia mCherry
COc1ccc(C(=O)NC(=S)N2CCN(C)CC2)cc1Br	-12%	-24%
COc1ccc(OC)c(NC(=O)c2sc3ncnc(N4CCN(c5ccccn5)CC4)c3c2C)c1	-5%	i
O=C(O)CCn1c(CO)nc2ccccc21	4%	i
CCOc1ccc(-c2nc(SCC(=O)Nc3ccc(C)c(C)c3)n3[nH]c(=O)cc3n2)cc1	-8%[7.34 µM]	-9%[7.34 µM]
CC(=O)Nc1ccc(-c2csc(Nc3ccc(S(N)(=O)=O)cc3)n2)cc1	-3%	-7%
C[C@]12c3[nH]c4cc(-c5ccco5)ccc4c3CCN1C(=O)[C@@H](CC(=O)NCCC1=CCCCC1)C[C@@H]2C(=O)N1CCCCC1	-26%	-11%

High-throughput results as filed in PubChem BioAssay.
